Calb biofilm kill: mixture kills Candida albicans biofilm cells; 0.02% of 120,000 active; AID 1242; inhibition, % at 7.6 µM; C. albicans biofilm persisters + clotrimazole, fluorescence viability; primary screen in compound mixtures of four per well;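 active = inhibition above 30.3% in the primary screen of four-compound pools, then above 30% when the compound was retested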;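 also: compounds exposed to preformed 24 h biofilms for 48 h; the number belongs to the whole pool; some results filed as inactive read as strong as hits; inactives centre near 12; 0% = biofilm with clotrimazole alone and 100% = kill control; retested singly at about 60 µM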
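Test system: C. albicans CAF4-2 wild-type biofilms; buffer or medium: RPMI/MOPS medium, pH 7.0; schedule: 24 h biofilm formation, then 48 h compound exposure, 37 °C; detection: Alamar Blue fluorescence; measure: percent inhibition of biofilm viability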
* = called active by the depositor. These rows are one share of the data. The share of hits here may be higher or lower than overall.

SMILES	Calb biofilm kill
O=C(Nc1ccccc1)C1CCCCN1S(=O)(=O)c1ccccc1 (configuration not stated)	15
c1ccc(COC2CCCN(Cc3nc(-c4cnccn4)no3)C2)cc1 (configuration not stated)	16
COc1ccc(-c2csc3nc(C(C)C)oc(=O)c23)cc1OC	19
O=C(O)CSc1nnnn1C1CCCCC1	30
CCCc1cc2c(=O)c(-c3cscn3)c(C(=O)OCC)oc2cc1O	12
CC(=O)NC1=NN(C(C)=O)C(C)(c2ccc3ccccc3c2)S1 (configuration not stated)	4
O=C(NCC1CCCO1)C(=O)NCC(c1ccco1)N1CCN(c2ccccc2F)CC1 (configuration not stated)	14
O=C(NCCc1ccccc1)C(=O)NCC1OCCN1S(=O)(=O)c1ccc(Cl)cc1 (configuration not stated)	10
O=C(Nc1nccs1)c1cncc(Br)c1	8
CCC(=O)NC1(C(F)(F)F)C(=O)Nc2c1c(=O)[nH]c(=O)n2CC(C)C (configuration not stated)	9
COc1ccc(CCN=C(N)NS(=O)(=O)c2ccc(OC)cc2)cc1	20
CC1CCCN(c2ccc(C(=O)NCc3ccco3)cc2[N+](=O)[O-])C1 (configuration not stated)	11
COCCn1c(C)cc(C(=O)CSc2cc(C)c3ccc(OC)cc3n2)c1C	8
Cc1ccc(S(=O)(=O)Nc2ccccc2CNc2ccc(Br)cn2)cc1	1
Cc1ccc(S(=O)(=O)N2C(=O)C(C)SC2=Nc2ccccc2)cc1 (configuration not stated)	18
COc1ccc(NC(=O)CSc2nc3cccnc3n2C)cc1	5
COc1ccc(NC(=O)C2CCCN(C)C2)cc1OCC(C)C (configuration not stated)	10
CS(=O)(=O)N1CCN(c2ccccc2NC(=O)c2ccc([N+](=O)[O-])o2)CC1	18
CCN(C(=O)COC(=O)c1cc(-c2ccccc2)nc2c1c(C)nn2-c1ccccc1)C1CCS(=O)(=O)C1 (configuration not stated)	18
CN(NC(=O)COc1ccccc1)c1ccccc1	5
CCC(Cc1ccccc1)n1c(=S)[nH]c2ccccc2c1=O (configuration not stated)	6
Cc1ccc(O)c(-c2cc(C(=O)NCc3ccc4c(c3)OCO4)[nH]n2)c1	1
Cc1cccc2cc(/C=N/NC(=O)c3ccccc3O)c(Cl)nc12	9
Cc1cc(C)n(/N=C/c2cccc([N+](=O)[O-])c2)c(=O)c1	18
Cn1nccc1CNC(=O)c1c(Cl)cnn1C	5

The list goes on.
SMILES	Calb biofilm kill
CCN(Cc1ccccc1)c1ccc(/C=N/N2CCOCC2)cc1	11
COc1ccc(OC)c(-c2c3c([nH]c(=S)c2C#N)CCCC3)c1	9
COc1ccccc1CNc1ccc2nnc(CCNC(=O)c3ccccc3)n2n1	10
Oc1ccc(-c2cn3cc(C(F)(F)F)ccc3n2)cc1	8
O=C(O)c1cccc(-c2ccc(/C=N/NC(=O)c3cccnc3)o2)c1	7
CC(=O)Nc1c(C(N)=O)oc2ccc(Cl)cc12	19
COc1ccc(C(=O)NNC(=O)CSc2nnc(-c3cccnc3)o2)cc1	23
COc1ccc(/C=C(/NC(=O)c2cccc([N+](=O)[O-])c2)C(=O)O)cc1	6
Cc1cc(Cl)c(OCCCN2CCCCC2)c(Br)c1	18
Cc1ccc(O)c(C2=NNC(c3ccc(Cl)cc3)C2)c1 (configuration not stated)	17
CC(=O)c1ccc(NC(=O)/C(=C\c2ccccc2)NC(=O)c2ccco2)cc1	13
CC(=O)N1CCN(c2ccccc2NC(=O)Cc2ccc(Cl)cc2)CC1	12
O=C(CN1CCN(Cc2ccccc2)CC1)Nc1ccc(-n2cnnn2)cc1	10
COc1ccc(CCn2c(-c3ccc(C(C)(C)C)cc3)n[nH]c2=S)cc1OC	14
CC(C(=O)N1CCc2ccccc2C1)N1C(=O)c2ccccc2C1=O (configuration not stated)	8
Cc1cccc(N2CCC(N=CN(C)C)=N2)c1	14
Cc1ccc(C(=O)COC(=O)c2cc(=O)[nH]c3ccccc23)cc1	-8
Cc1ccc(Cn2c(SCC(=O)NCC3CCCO3)nc3c2c(=O)n(C)c(=O)n3C)cc1 (configuration not stated)	4
COc1cc(OC)cc(C(=O)NCCN2C(=O)S/C(=C\c3cccs3)C2=O)c1	12
CC(C)(C)NC(=O)NC(=O)COC(=O)CNC(=O)C1CCCCC1	0
Cc1nc(S(=O)(=O)Cc2ccccc2Cl)nc2c1CCC2	5
O=S(=O)(NCc1cn2ccccc2n1)c1cccs1	4
O=C(Nc1cccc(F)c1)c1sc(Cl)nc1-c1ccccc1	9
Cc1cccc(NC(=O)CSc2cc(C)c(C#N)c3nc4ccccc4n23)c1	21
Cc1ccc(S(=O)(=O)/N=C(/c2ccc(F)cc2)N2CCCC2)cc1	7

Reprinted from above, 16 compounds:
SMILES	Calb biofilm kill
Cc1ccc(O)c(C2=NNC(c3ccc(Cl)cc3)C2)c1 (configuration not stated)	17
CC(=O)c1ccc(NC(=O)/C(=C\c2ccccc2)NC(=O)c2ccco2)cc1	13
CC(=O)N1CCN(c2ccccc2NC(=O)Cc2ccc(Cl)cc2)CC1	12
O=C(CN1CCN(Cc2ccccc2)CC1)Nc1ccc(-n2cnnn2)cc1	10
COc1ccc(CCn2c(-c3ccc(C(C)(C)C)cc3)n[nH]c2=S)cc1OC	14
CC(C(=O)N1CCc2ccccc2C1)N1C(=O)c2ccccc2C1=O (configuration not stated)	8
Cc1cccc(N2CCC(N=CN(C)C)=N2)c1	14
Cc1ccc(C(=O)COC(=O)c2cc(=O)[nH]c3ccccc23)cc1	-8
Cc1ccc(Cn2c(SCC(=O)NCC3CCCO3)nc3c2c(=O)n(C)c(=O)n3C)cc1 (configuration not stated)	4
COc1cc(OC)cc(C(=O)NCCN2C(=O)S/C(=C\c3cccs3)C2=O)c1	12
CC(C)(C)NC(=O)NC(=O)COC(=O)CNC(=O)C1CCCCC1	0
Cc1nc(S(=O)(=O)Cc2ccccc2Cl)nc2c1CCC2	5
O=S(=O)(NCc1cn2ccccc2n1)c1cccs1	4
O=C(Nc1cccc(F)c1)c1sc(Cl)nc1-c1ccccc1	9
Cc1cccc(NC(=O)CSc2cc(C)c(C#N)c3nc4ccccc4n23)c1	21
Cc1ccc(S(=O)(=O)/N=C(/c2ccc(F)cc2)N2CCCC2)cc1	7

Remaining list, next part:
SMILES	Calb biofilm kill
C=CCOc1c(Br)cc(CNc2ccc3[nH]c(=O)[nH]c3c2)cc1OCC	14
Cc1ccc(SCCC(=O)NC2CC2)cc1	33
COc1cc2c(cc1OC)C(SC)=NC1(CCCC1)C2	26
Cc1cc(-c2nnc(CCC(=O)N(C)Cc3ccsc3)o2)no1	15
O=C(COc1ccccc1)NNC(=S)NC(=O)c1ccccc1	13
CCN(CC)CCOC(c1ccccc1)c1ccc(C)cc1 (configuration not stated)	12
NC(=O)c1ccc[n+](CCC[n+]2cccc(C(N)=O)c2)c1	9
COC(=O)c1ccc(C2C(Oc3ccc(OC)cc3)C(=O)N2CCc2ccc(OC)c(OC)c2)cc1 (configuration not stated)	18
COc1ccc(Cl)cc1N(CC(=O)NC1CC1)S(=O)(=O)c1ccc(C)c([N+](=O)[O-])c1	19
CC(SCc1cc(=O)n2c([nH]c3ccccc32)c1C#N)C(=O)O (configuration not stated)	18
O=C(CSc1ncn[nH]1)Nc1ccc(S(=O)(=O)Nc2ncccn2)cc1	3
OC(Cc1cccnc1)(Cc1cccnc1)c1cc2ccccc2[nH]1	19
Cc1occc1C(=O)N/N=C/C(Br)=C\c1ccccc1	35
O=C(Nc1ccccc1)Nc1ccno1	4
O=C(COc1ccccc1)NCC1CCCO1 (configuration not stated)	-6
Cc1cc(C)n(CC2CC(=O)N(c3cc(Cl)cc(Cl)c3)C2=O)n1 (configuration not stated)	20
O=C(CSCc1ccc(Cl)cc1)Nc1ccccc1O	2
O=C(NNc1cc(Cl)ccc1Cl)c1cccs1	19
CCCOc1ccc(-c2csc(NC(=O)CN3C(=O)CCC3=O)n2)cc1	1
C=CCNC(=O)COC(=O)/C=C/c1cccs1	10
N=C1C2=C3Sc4ccccc4N3CCCC2=NN1c1cccc(S(=O)(=O)O)c1	7
COc1ccc(-c2nnc3ccc(SCC(=O)Nc4nc5ccccc5s4)nn23)cc1OC	18
COc1cccc(NC(=O)/C=C/c2ccco2)c1	12
O=c1c2ccccc2c(-c2cccc(C(F)(F)F)c2)nn1-c1ccccc1	13
CC(=O)Nc1nnc(COc2ccccc2)s1	20

Remaining list, next part:
SMILES	Calb biofilm kill
CC[n+]1ccc(C)c2cc(P(=O)(c3ccccc3)c3ccccc3)ccc21	12
CN(C)c1ccc(C(C#N)c2ccccc2)nn1 (configuration not stated)	-2
Clc1ccccc1CNc1nc2ccccc2n2cnnc12	31
CCN(CC(=O)Nc1ccc(N2CCOCC2)cc1)C(=O)c1ccc(C#N)cc1	-3
Nc1nc(C(F)(F)F)c(Br)c(=O)n1N	21
COc1ccc(NC2=CC(c3ccc(F)cc3)N(c3ccc(OC)cc3)C2=O)cc1 (configuration not stated)	12
CCC1CCC(C(=O)NNC(=O)c2cc(-c3ccco3)[nH]n2)CC1 (configuration not stated)	-4
CS(=O)(=O)NCCn1ccc2ccccc21	11
Cc1ccc(S(=O)(=O)Nc2ccc(N(C)S(=O)(=O)c3ccc(C)cc3)cc2)cc1	14
CC1(c2nnc(-c3ccncc3)o2)CC(c2ccc([N+](=O)[O-])cc2)=NO1 (configuration not stated)	9
COc1cccc2cc(-c3ccnc(N)n3)oc12	8
Cc1cc(C)nc(NS(=O)(=O)c2ccc(NC(=O)c3ccc(N4C(=O)CCC4=O)cc3)cc2)n1	3
CC1=CC2CC1C1C(=O)N(c3ccc(S(=O)(=O)Nc4nc(C)cc(C)n4)cc3)C(=O)C21 (configuration not stated)	11
O=C(CNC(=O)c1ccccc1)NCC(=O)OCC(=O)c1ccc([N+](=O)[O-])cc1	7
COc1cc(/C=C(\CC(=O)O)c2nc3ccccc3s2)cc(OC)c1O	7
COC(=O)/C=C1/N/C(=N\c2nc(C)cc(C)n2)N(c2ccccc2)C1=O	14
COc1ccc(N(CC(=O)N2CCC(Cc3ccccc3)CC2)S(C)(=O)=O)cc1	18
CCCOc1c(Br)cc(C(N)=O)cc1OCC	13
COc1cc2nc(C3CCC3)nc(N3CCN(c4ccccn4)CC3)c2cc1OC	-1
Cc1ccc(OCCSc2nnc(C)c(=O)n2N)cc1	16
COc1ccccc1C(=O)NC(=S)Nc1ccc(NC(=O)c2cccs2)cc1	17
CCC(=O)n1nc(-c2ccc(OC)cc2)nc1SC	15
CC(C)(C)C(=O)NC1(C(F)(F)F)NC(=O)N(Cc2ccccc2)C1=O (configuration not stated)	-6
O=C(CCC(=O)OCC(F)(F)C(F)F)Nc1ccccc1F	10
COc1cccc(OC)c1C(=O)Nc1nnc(-c2cccs2)s1	23

The list goes on:
SMILES	Calb biofilm kill
COc1cccc(N(Cc2nnc3n2CCCCC3)C(=O)Nc2ccccc2)c1	16
O=S(=O)(NCc1csc(-c2cccs2)n1)c1cccs1	27
S=C(NCCc1ccccc1)Nc1ccc(Br)cn1	12
CCCC(=O)NC(=S)Nc1ccc(C(C)=O)cc1	8
Cc1ccsc1C(=O)Nc1ccc(O)c(-c2nc3ccccc3s2)c1	12
O=C(O)/C(=N/NC(=O)c1ccc(Cl)cc1)c1ccccc1	18
OCCC1CN(Cc2cn[nH]c2C2CCCCC2)CCN1Cc1ccccc1 (configuration not stated)	2
CSc1ccc(S(=O)(=O)Nc2ccc(OCC(=O)N3CCOCC3)cc2)cc1	18
CCOCCCNC(=S)N1CCC(C(=O)c2ccc3c(c2)OCCO3)CC1	21
CCNC(=O)Nc1cc(OC)c(OC)cc1C(=O)O	5
CC(/C=C/c1ccco1)=N\NC(=O)c1cccc(Cl)c1	13
COc1ccc(O)c(C(=O)c2cnc3nc4ccccc4n3c2)c1	21
O=C(Cc1ccccc1)NC(=S)Nc1ccc2oc(-c3ccccc3)nc2c1	21
Cc1cc(C)n2ncc(C(=O)Nc3cccc(O)c3)c2n1	3
CC(C)(C)c1ccc(COC(=O)Nc2ccc(F)cc2)cc1	14
CC(=O)Nc1cccc(/C(C)=N/NC(=O)c2ccc(Cl)cc2Cl)c1	28
CCC(CC)c1nnc(NC(=O)C2CC(=O)N(c3ccc4c(c3)OCCO4)C2)s1 (configuration not stated)	5
CCOC(=O)CNC(=O)N1CCCC(C(=O)c2ccccc2SC)C1 (configuration not stated)	26
CCOC(=O)C(C)Oc1ccc(OCc2ccccc2)cc1 (configuration not stated)	13
CCOC(=O)C1CCCN(C(=O)COC(=O)c2ccc(C#N)cc2)C1 (configuration not stated)	16
C/C(=N\N=C(N)N)c1ccc(C)c(C)c1	15
COC(=O)c1ccccc1-n1cccc1C(=O)NP(=O)(N1CCOCC1)N1CCOCC1	6
COc1ccc(NC(=O)c2oc3ccccc3c2NC(=O)C2CCCO2)cc1OC (configuration not stated)	7
CC(=O)Nc1ccc(Oc2ccc(NC(C)=O)c(NC(C)=O)c2)cc1	4
Cc1c(NC(=O)CN2CCN(c3ccc([N+](=O)[O-])cc3)CC2)c(=O)n(-c2ccccc2)n1C	3

Later entries
SMILES	Calb biofilm kill
O=C(NCC1(c2ccccc2)CCCC1)c1ccco1	11
CN1C(=O)C(/C(N)=N/NC(=O)c2ccccc2)C2CC1(C)Oc1ccccc12 (configuration not stated)	6
CCO[C@H]1OC(C(=O)NCc2ccccc2)=C[C@@H](c2coc3ccccc3c2=O)[C@@H]1CCCO	11
CC1CN(c2ccc([N+](=O)[O-])c(NCCOc3ccccc3)c2)CCN1 (configuration not stated)	41
O=C(NCc1ccccc1)C(=O)Nc1nc(-c2ccccc2)cs1	15
COc1ccc(Cl)c(OC)c1C(=O)NC(=O)Nc1c(F)cc(F)cc1F	15
COc1ccc(OC)c(C2C(C(=O)c3ccccc3)=C(C)Nc3nc4ccccc4n32)c1 (configuration not stated)	8
CCOC(=O)C1CCN(c2nc(-c3ccc(Br)cc3)nc3ccccc23)CC1	16

High-throughput results as filed in PubChem BioAssay.
